RE007 growth inh – qHTS Assay for Inhibitors of the HIV-1 protein Vpr | S. pombe RE007 Vpr strain, BacTiter-Glo ATP luminescence, 24 h; control for the full effect not named in the record | Potency, µM (top dose mostly 92.2 µM), for the others: at the top dose activity change, negative = less growth | 360,000 tested, 0.21% active; active = well fitted falling curve with a large enough effect; inconclusive = small, poorly fitted or top-dose-only effect; inactive = no such curve, though single readings can be large or run the other way;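 note: % is set by controls: 0 for no effect and ±100 for the full control effect; nearly all actives have a fitted effect of over 50% in size; the assay follows cell death caused by Vpr and the record does not say whether a fall means rescue or toxicity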
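Fission yeast RE007 carrying one integrated HIV-1 vpr copy, seeded at OD 0.01 in PMG+AL medium with 23 nL pinned compound. Grown 24 h at 30 degrees; viability read by BacTiter-Glo luminescence after 5 min.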
Cruzain noTriton – qHTS Assay for Promiscuous and Specific Inhibitors of Cruzain (without detergent). Cruzipain (Trypanosoma cruzi), P25779. purified cruzain, Z-FR-AMC fluorescence, no detergent. Potency, µM, for the others: max response, negative = inhibition, hits mostly inhibitors. 200,000 tested, 2.3% active;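 note: plate controls were enzyme without inhibitor for no effect and buffer without enzyme for full effect; nearly all actives have a fitted effect of over 40% in size; top concentration of the series not given in the record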
Target sequence (P25779 123-467 limits assumed): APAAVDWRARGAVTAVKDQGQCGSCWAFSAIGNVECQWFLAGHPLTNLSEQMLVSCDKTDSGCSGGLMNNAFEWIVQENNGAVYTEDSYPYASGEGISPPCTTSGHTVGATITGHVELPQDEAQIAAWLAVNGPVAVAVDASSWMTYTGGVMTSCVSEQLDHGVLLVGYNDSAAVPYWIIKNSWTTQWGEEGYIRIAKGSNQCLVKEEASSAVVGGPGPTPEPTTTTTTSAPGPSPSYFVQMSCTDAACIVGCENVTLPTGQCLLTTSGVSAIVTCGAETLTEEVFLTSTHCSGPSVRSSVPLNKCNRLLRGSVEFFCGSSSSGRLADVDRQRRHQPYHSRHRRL
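Detergent-free condition (0.00005% Triton X-100) in acetate buffer pH 5.5 with DTT. 1.5 nM enzyme and compound were pre-mixed 15 min, then 2 uM Z-FR-AMC substrate added; reaction progress from fluorescence change between first and third reads (60 s).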
Lassa entry inh – qHTS for Inhibitors of binding or entry into cells for Lassa Virus | Potency, µM (doses to about 37.9 µM), inactives show at the top dose activity change, negative = inhibition, actives largely listed as inhibitors | AID 540256, 2011 | Lassa virus pseudotype entry inhibition, cell reporter; control for the full effect not named in the record | 300,000 tested, 1.2% active; active means well fitted inhibition curve with a large enough effect; inconclusive means small, poorly fitted or top-dose-only effect, or effect the other way; inactive means flat fitted curve, though single readings scatter; tested in HEK293 cells; note: % is set by controls: 0 for no effect and ±100 for the full control effect; nearly all actives have a fitted effect of over 50% in size; luciferase read-out
StopGo reporter – High Throughput Screening for Foot and Mouth Disease Virus Antivirals; human cells with a luciferase reporter of 2A StopGo recoding; control for the full effect not named in the record; Potency, µM (highest dose often 57.9 µM), without a hit: at the highest dose signal change, negative = less light; 410,000 tested, 1.2% active; active = well fitted falling curve with a large enough effect; inconclusive = small, poorly fitted or top-dose-only effect; inactive = no such curve, though single readings can be large or run the other way; tested in HEK293T cells; note: % is set by controls: 0 for no effect and ±100 for the full control effect; nearly all actives have a fitted effect of over 45% in size; luciferase light after 4 h
Cruzain inh Det – qHTS Assay for Promiscuous and Specific Inhibitors of Cruzain (with detergent). 200,000 tested, 0.43% active. Potency, µM, for inactives: max response, negative = inhibition, usual class: inhibitors. AID 1478, 2009. purified cruzain, Z-FR-AMC fluorescence, 0.01% Triton;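 note: plate controls were neutral wells for no effect and buffer without enzyme for full effect; nearly all actives have a fitted effect of over 40% in size; top concentration of the series not given in the record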
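Cruzain (1.5 nM) preincubated 15 min at RT with compound in 100 mM sodium acetate pH 5.5, 5 mM DTT, 0.01% Triton X-100. Reaction started with 2 uM Z-FR-AMC; AMC fluorescence (ex 360/em 450 nm) change over 60 s gave rate.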
SARS PLpro yeast – qHTS of Yeast-based Assay for SARS-CoV PLP; 330,000 tested, 0.19% active; S. cerevisiae expressing SARS-CoV PLpro, growth rescue; control for the full effect not named in the record; Potency, µM (titrated, usually from 32.9 µM), without a hit: top-dose activity, positive = growth rescue; active means well fitted rising curve with a large enough effect; inconclusive means small, poorly fitted or top-dose-only effect; inactive means no such curve, though single readings can be large or run the other way; note: 0% is about no effect; nearly all actives have a fitted effect of over 55% in size; growth read by luminescence after 48 h
NS1 inh – qHTS Assay for Inhibitors of Influenza NS1 Protein Function | S. cerevisiae slowed by influenza A NS1, growth recovery by OD600 | Potency, µM (series often up to 46.1 µM), without a hit: at the top dose activity, positive = more growth | 270,000 tested, 0.4% active; active means well fitted rising curve with a large enough effect; inconclusive means small, poorly fitted or top-dose-only effect; inactive means no such curve, though single readings can be large or run the other way; note: nearly all actives have a fitted effect of over 50% in size
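Recovery from NS1-induced slow growth read by OD600 in budding yeast switched to galactose assay medium (pH 6.0, -URA) at 1:100 dilution. Compound 23 nl per well; the matching strain lacking NS1 serves as control.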
MARV entry inh – qHTS for inhibitors of binding or entry into cells for Marburg Virus | Marburg virus pseudotyped entry inhibition, cell reporter; control for the full effect not named in the record; about a third of the inactives were read at about 46 µM | Potency, µM (series often up to 37.8 µM), inactives show top-dose activity change, negative = inhibition, actives largely listed as inhibitors | 300,000 tested, 1.8% active | AID 540276, 2011; active = well fitted inhibition curve with a large enough effect; inconclusive = small, poorly fitted or top-dose-only effect, or effect the other way; inactive = flat fitted curve, though single readings scatter; tested in HEK293 cells; about a fifth of its hits are not listed in these tables; note: % is set by controls: 0 for no effect and ±100 for the full control effect; luciferase read-out
* = called active by the depositor; ? = inconclusive; / = no result given; & = joins results of further samples; [ ] = another dose, or the depositor's remark. Unless noted, calls come from the whole dose curve; as a rule, active = well fitted curve in the direction sought with a large enough effect; inconclusive = small, poorly fitted or top-dose-only effect, or another doubt; inactive = no such curve, though single readings can be large; an effect the other way counts as inactive or inconclusive. Potency is the fitted concentration of half-maximal effect.

SMILES	RE007 growth inh	Cruzain noTriton	Lassa entry inh	StopGo reporter	Cruzain inh Det	SARS PLpro yeast	NS1 inh	MARV entry inh
CCCn1c(O)c(N=Nc2ccc3ccccc3n2)c2ccccc21	-10%	13%	?	29%	-6.5%	0%	7%	?
CCN1C(=O)CC(NNC(=O)c2ccc(Cl)cc2)C1=O (configuration not stated)	-5%[3.69 µM]	7%	-1%	2%	5.9%	-2%	13%	14%
CC(=O)Nc1ccc(NC(=O)C(OC(=O)c2ccccc2)C(OC(=O)c2ccccc2)C(=O)O)cc1 (configuration not stated)	-3%	/	-1%	-8%	/	0%	0%	-4%[46.1 µM]
Cc1ccc(N(CC(=O)N2CCN(c3ccc(Cl)cc3)CC2)S(=O)(=O)c2c(C)noc2C)cc1	/	3%	-1%[46.1 µM]	-10%	-2.7%	/	/	19%[46.1 µM]
C=CCOc1ccc(/C=N/NC(=O)C(C)Sc2ccccn2)cc1OC (configuration not stated)	-1%	-4%	?	-25%	-2.0%	6%	-9%	-13%
COc1ccc2cc(CN(CC3CCCO3)S(=O)(=O)c3ccccc3)c(=O)[nH]c2c1 (configuration not stated)	-1%	?	12%	/	12%	-3%	-8%	-19%
Cc1ccc(C(c2nnnn2CS(=O)(=O)c2ccc(C)cc2)N2CCC(C)CC2)cc1 (configuration not stated)	6%	19%	-15%	-22%	2.2%	-5%	7%	?
CS(=O)(=O)N1CCC(C(=O)O)CC1	-5%	-4%	-15%	12%	4.8%	1%	7%	-3%
CC1Cc2ccccc2C(CCc2ccccc2)=N1 (configuration not stated)	-5%	/	/	-17%	/	0%	2%	/
CCn1nc(C)c(CNC(=O)c2ccc(OC3CCN(Cc4ccccn4)CC3)cc2)c1C	2%	/	?	?	/	-6%	-6%	?
Cc1ccc(CSc2nc3ccccc3c(=O)n2CCCC(=O)NCc2ccco2)cc1	-6%	4%	?	9%	-1.3%	-4%	5%	-15%
Cc1cc(C)cc(OCC(=O)NCC2CCCO2)c1 (configuration not stated)	-2%	5%	7%	/	6.0%	-9%	-3%	5%
CN(CCc1ccccn1)C(=O)CCC1CCCN(C(=O)c2ccccn2)C1 (configuration not stated)	-11%	/	-1%[46.1 µM]	-19%	/	6%	4%	2%[46.1 µM]
O=C(CSc1ccc(C(F)(F)F)cc1[N+](=O)[O-])Nc1ccccc1	-5%	-3%	-17%	/	0.6%	1%	-9%	-17%
O=C(Oc1ccccc1C(=O)Nc1ccccc1)c1ccccc1Br	-2%	-8%	-21%	-29%	-5.6%	-34%	-52%	-14%
CCCCn1c(N)c(N(CC(C)C)C(=O)c2cc3c(s2)CCCCC3)c(=O)[nH]c1=O	11%	/	20%	19%	/	3%	/	28%[46.1 µM]
CCCc1nc2sc3ccccc3c(=O)c2c(=O)n1CCOC	/	9%	/	/	1.4%	1%	15%	/
CCC1CCCCN1C(=O)CCc1nnc(Cc2cc(OC)ccc2OC)o1 (configuration not stated)	17%	/	-9%	50%[activator]	/	0%	-1%	?
COCCC(=O)N1CCC(Oc2ccc(C(=O)N3CCCC(COC)C3)cc2)CC1 (configuration not stated)	-15%	/	0%	2%	/	-8%	7%	12%
O=C(Cn1ccc2ccccc2c1=O)NCCC(=O)Nc1ccc(F)cc1F	22%	-6%	-7%[46.1 µM]	-19%&-9%	-0.2%	0%	9%	28%&-11%[46.1 µM]
COc1ccc(O)c(-c2[nH]ncc2C(=O)c2ccccc2)c1	9%	-2%	3%	-16%	0.8%	-5%	-3%	-2%
COC(=O)c1cccc(NC(=O)C(C)N2C(=O)c3ccccc3C2=O)c1 (configuration not stated)	-17%	1%	22%	/	2.0%	-2%	-14%	23%
CCc1ccc(NC(=O)c2cc(C)on2)cc1	-9%	1%	-42%[14.3 µM]	-18%	3.0%	-4%	-8%	?
CCN(CC(=O)Nc1c(F)cccc1F)C(=O)Cc1n[nH]c(=O)c2ccccc12	7%	/	-3%	-6%	/	-3%	/	-15%
O=C(CSc1ccc(F)cc1)NC12CC3CC(CC(C3)C1)C2	5%	/	21%[46.1 µM]	5%	/	-1%	-11%	?
CCc1cccc(OC2OC(CO)C(O)C(O)C2NC(C)=O)c1 (configuration not stated)	-1%	/	7%	5%	/	-1%	-4%	16%[46.1 µM]
COc1cccc(OCC(O)CN2CC(C)CC(C)C2)c1 (configuration not stated)	-11%	6%	6%	-2%	3.4%	0%	-4%	-22%
Cc1ccc(S(=O)(=O)N2CCN(C(=O)CN3C(=O)NC4(CCCC4)C3=O)CC2)c(C)c1	9%	/	1%	-23%	/	1%	/	7%[46.1 µM]
CCCCC(=O)N(CCOC)c1nnc(-c2ccccc2C)s1	89%	/	0%[46.1 µM]	-6%	/	0%	-2%	?
CS(=O)(=O)N1CCC(C(=O)Nc2ccc(Cl)cc2)CC1	2%	/	/	7%	/	0%	7%	/
COc1ccc2[nH]c(C)c(CCNC(=S)Nc3cccc(C)c3)c2c1	2%	11%	?	7%	-7.0%	3%	21%	?
COc1ccccc1CNc1ncc(-c2ccccc2)n1C	-24%	/	/	-10%	/	5%	-4%	/
COC(=O)c1ccc(C(=O)OC)c(NC(=S)N2CCCCC2)c1	-8%	-5%	3%	/	-0.7%	0%	11%	11%
O=C(CN1CCN(C2CCCCC2)CC1)Nc1ccccc1N1CCCCC1	-8%	3%	?	/	1.4%	6%	-7%	?
Cc1ccccc1NS(=O)(=O)c1ccc2[nH]cc(C(=O)NCCc3ccccc3)c(=O)c2c1	/	-11%	?	-1%	-7.6%	2%	/	/
CC(C)c1ccccc1OCC(=O)NN1C(=O)c2ccccc2C1=O	-9%	/	?	-3%	/	3%	0%	3%[46.1 µM]
O=C(Nc1nc(-c2ccc(-c3ccccc3)cc2)cs1)C1=COCCO1	-13%	?	-8%	-5%	-1.6%	22%	9%	?
CCO[C@H]1OC(C(=O)N2CCOCC2)=C[C@@H](c2cn(C(C)=O)c3ccccc23)[C@@H]1CCCO	-1%	/	/	-8%	/	-1%	2%	/
Cc1cc2cc(CN(CCCN3CCOCC3)C(=O)NC3CCCCC3)c(=O)[nH]c2cc1C	-9%	1%	3%	-8%	3.9%	-1%	-6%	-18%&-18%
O=C(COc1ccccc1[N+](=O)[O-])N1CCC(c2nc3ccccc3o2)CC1	/	1%	-8%[46.1 µM]	-6%	-3.4%	/	/	9%[46.1 µM]
O=C(CSc1ccc2ccccc2n1)N/N=C/c1ccc(O)cc1	0%	/	/	-13%	/	2%	14%	/
CCOc1ccc(-c2nn(CC(=O)NC3CCCC3)c3c2cnc2ccc(F)cc23)cc1	/	?	0%[46.1 µM]	28%	0.7%	/	/	/
Cc1ccc(O)c(C2=NCCNC(C(F)(F)C(F)F)=C2)c1	-12%	-2%	3%	-13%	-6.5%	-4%	?	-14%
Cc1cc(C)n(-c2nc3c(c(=O)[nH]c(=O)n3C)n2CCc2ccccc2)n1	26%	10%	?	0%	-2.9%	0%	-4%	?
Cc1ccc(N(C(C)C(=O)O)S(=O)(=O)c2c(C)[nH]c(=O)[nH]c2=O)cc1 (configuration not stated)	-5%	-10%	/	-16%	3.2%	-4%	-6%	/
CCCCn1c(O)c(C(=O)/C=C/c2ccc3c(c2)OCO3)c(=O)[nH]c1=O	-4%	/	?	?	/	0%	?	-5%[46.1 µM]
COC(=O)c1sccc1S(=O)(=O)Nc1ccc(Cl)cc1	2%	/	0%[46.1 µM]	59%[activator]	/	-4%	-2%	?
S=C(Nc1cccc2ccccc12)NC1CCCCC1	-6%	/	?	11%	/	-1%	/	?
COCC(C)Nc1ccc(S(=O)(=O)N2CCCC2)cc1[N+](=O)[O-] (configuration not stated)	-3%	/	-19%	1%	/	9%	/	-12%[46.1 µM]
CCCCc1ccc(C(=O)NC(C(=O)O)C(C)C)cc1 (configuration not stated)	-17%	15%	29%[14.3 µM]	20%	-3.0%	3%	6%	3%
O=C(NCc1ccccc1)NC1(C(=O)Nc2ccc3c(c2)OCCO3)CCCCC1	7%	10%	-6%	-14%	2.9%	-6%	-3%	?
CCOC(=O)c1c(NC(=O)C2(C)Cc3ccccc3C(=O)O2)sc2c1CCCC2 (configuration not stated)	-3%	?	-9%	-12%	-12%	-3%	?	-7%
Cc1ccc(C(=O)Oc2ccccc2N2CCOCC2)cc1	0%	/	?	-8%	/	-3%	-8%	12%
FC(F)Oc1ccc(/C=N/n2c(Cc3ccc(Br)cc3)n[nH]c2=S)cc1	-17%	/	5µM*	-20%	/	?	1%	-2%[46.1 µM]
Cc1ccc(-c2noc(CSc3nnc(Cc4cccs4)n3-c3ccccc3)n2)cc1	5%	6%	/	-3%	-3.8%	-13%	1%	1%
CC(=O)Oc1ccc(/C=C2\C=C(c3ccc(C)cc3)OC2=O)cc1	-20%	/	-14%[46.1 µM]	-6%	/	0%	7%	20%[46.1 µM]

Compound activity (PubChem)
